Screening results (PubChem BioAssay)
YopH PTP inh = inhibitors of Yersinia enterocolitica YopH tyrosine phosphatase | hit rate 0.16% among 140,000 | inhibition, %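 (about 10 µM by stock and volumes)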 | fluorescence Ex485/Em525;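 active = inhibition of 50% or more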;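 note: controls were vehicle for no effect and minimum signal wells for full effect; inactives centre near -20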
RecA intein inh = Mtb RecA intein splicing inhibition; P9WHJ3; cell-free RecA intein splicing, fluorescence; inhibition, %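 (about 9 µM by stock and volumes)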; hit rate 0.75% among 290,000; AID 2221; in the data active = inhibition above about 30%; inconclusive = no clear call, values can overlap the other calls;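 note: 0% = vehicle wells and 100% = reference inhibitor control wells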
Target sequence (P9WHJ3 whole entry, looked up): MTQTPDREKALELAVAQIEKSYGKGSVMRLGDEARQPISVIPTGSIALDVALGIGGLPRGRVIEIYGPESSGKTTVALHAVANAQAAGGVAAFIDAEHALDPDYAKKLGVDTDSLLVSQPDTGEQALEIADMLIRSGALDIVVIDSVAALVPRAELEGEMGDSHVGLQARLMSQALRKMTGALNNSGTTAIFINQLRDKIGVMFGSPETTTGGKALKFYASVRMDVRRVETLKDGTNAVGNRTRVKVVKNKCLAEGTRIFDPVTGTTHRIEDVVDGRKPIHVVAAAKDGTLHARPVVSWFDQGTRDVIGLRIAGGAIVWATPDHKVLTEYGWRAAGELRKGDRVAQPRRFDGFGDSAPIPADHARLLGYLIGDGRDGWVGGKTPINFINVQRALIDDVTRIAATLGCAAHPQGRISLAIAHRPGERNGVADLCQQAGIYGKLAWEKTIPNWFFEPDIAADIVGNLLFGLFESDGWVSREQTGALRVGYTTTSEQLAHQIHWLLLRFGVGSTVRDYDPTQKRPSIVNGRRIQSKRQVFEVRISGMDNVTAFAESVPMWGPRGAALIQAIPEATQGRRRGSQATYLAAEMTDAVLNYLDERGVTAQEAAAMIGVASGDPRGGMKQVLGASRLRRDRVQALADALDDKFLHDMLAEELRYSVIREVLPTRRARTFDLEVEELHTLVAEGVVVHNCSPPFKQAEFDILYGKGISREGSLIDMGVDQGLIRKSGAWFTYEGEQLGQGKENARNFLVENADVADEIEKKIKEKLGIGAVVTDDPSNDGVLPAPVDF
Mtb H37Rv = M. tuberculosis H37Rv growth inhibitors, H37Rv strain (AID 1626); M. tuberculosis H37Rv growth inhibition; higher % means a stronger effect; inhibition, % at 10 µM; hits with a dose series show IC50 in µM; hit rate 0.95% among 220,000;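 active = confirmed in a dose series; inconclusive = inhibition above 80% but not taken into the dose series; inactive = below 80% or under 30% at every dose of the series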;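 note: bacteria incubated seven days before Alamar blue readout; 0% = bacteria only wells and 100% = bacteria with antibiotic wells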
Mtb bLac sens = beta-lactam sensitization of Mtb H37Rv. AID 434955. M. tuberculosis H37Rv growth with meropenem, percent inhibition; hits of this screen are not shown here. hit rate 0.27% among 330,000. inhibition, % at 25 µM;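 active = about 74% or more and at least 40 points above the plate without the antibiotic, then above 30% in a dose series; inconclusive = first-round hits that could not be retested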;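 note: growth measured after seven days incubation then overnight dye step; 0% = bacteria only wells and 100% = bacteria with antibiotic; twin plates without the antibiotic show which effects depend on it; some results filed as inactive read as strong as hits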
Arbovirus anti = blocks arbovirus infection; arbovirus infection cell-based antiviral screen; inhibition, % at 10 µM; hit rate 0.37% among 200,000;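 active = inhibition from about 30%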;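 note: bluetongue infection of BSR cells; cell survival read as ATP light after 72 h; 0% = infected wells without compound and 100% = uninfected wells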
* = called active by the depositor; ? = inconclusive; · = not tested or not shown. Not all compounds are listed; the hit share may differ from the screen's.

SMILES | YopH PTP inh | RecA intein inh | Mtb H37Rv | Mtb bLac sens | Arbovirus anti
CC(=O)c1ccc(N(CC(=O)NC2CCCC2)C(=O)CCC(=O)Nc2cc(C)on2)cc1 | · | 1.5 | · | 3 | ·
CCOc1ccccc1CN1CCN(CC2=Cc3cc(OC)ccc3OC2)CC1CCO (stereo unspecified) | · | 3.2 | -2% | 9 | ·
Cc1cccc(N2CCN(Cc3nc(CC4CC4)no3)CC2)n1 | · | -3.7 | -11% | 7 | 0
CCc1ccccc1NC(=O)CCc1nc(-c2cccs2)no1 | · | 0.3 | -1% | 0 | 1
Cc1ccnn1CC(=O)N/N=C/c1ccco1 | 16 | -1.5 | -12% | -11 | 1
O=C(COC(=O)c1ccc2ccccc2n1)c1ccc(F)cc1 | · | -0.6 | -7% | -1 | 4
Cc1ccc(-n2c(SCc3ccc(C(=O)O)cc3)nnc2-c2ccncc2)cc1 | · | -0.5 | -10% | -10 | ·
CCOC(=O)C1CCN(C(=S)Nc2ccc(Cl)cc2C)CC1 | · | -2.7 | 10% | -9 | 1
N#CNc1nc(O)cc(=O)[nH]1 | · | -1.8 | -1% | 2 | ·
CCCOc1ccc2[nH]cc(C(=O)O)c(=O)c2c1 | -35 | 0.6 | -6% | 72 | 0
O=C(Nc1cccc(S(=O)(=O)NCc2ccco2)c1)c1cc(-c2ccccc2)nc2ccccc12 | -26 | 2.5 | 8% | -1 | -13
Cc1cc(C)c2c(=O)[nH]c(SCC(=O)Nc3ccc(N(C)C)cc3)nc2n1 | -53 | 1.5 | -6% | -8 | 2
CCc1ccc(C2=C/C(=C/c3cccnc3)C(=O)O2)cc1 | -21 | 4.8 | 4% | 16 | 10
CC1=NN(c2ccc(S(=O)(=O)O)cc2Cl)C(=O)C1 | · | 82* | -1% | 7 | 2
O=C1CCC/C(=N\NC(=O)c2ccc(NS(=O)(=O)c3ccc(Br)cc3)cc2)C1 | -39 | 12 | -6% | 3 | -4

Among those listed so far, these have a halogen.
SMILES | YopH PTP inh | RecA intein inh | Mtb H37Rv | Mtb bLac sens | Arbovirus anti
O=C(COC(=O)c1ccc2ccccc2n1)c1ccc(F)cc1 | · | -0.6 | -7% | -1 | 4
CCOC(=O)C1CCN(C(=S)Nc2ccc(Cl)cc2C)CC1 | · | -2.7 | 10% | -9 | 1
CC1=NN(c2ccc(S(=O)(=O)O)cc2Cl)C(=O)C1 | · | 82* | -1% | 7 | 2
O=C1CCC/C(=N\NC(=O)c2ccc(NS(=O)(=O)c3ccc(Br)cc3)cc2)C1 | -39 | 12 | -6% | 3 | -4

New compounds follow:
SMILES | YopH PTP inh | RecA intein inh | Mtb H37Rv | Mtb bLac sens | Arbovirus anti
Cc1nc2cc(NCc3ccc(Cl)cc3)ccc2n1C | · | -0.8 | · | -21 | ·
COc1ccc(C(=O)Oc2cc(/C=N/NC(N)=S)ccc2OC)cc1 | -27 | 3.2 | -6% | 89 | 16
COc1ccc(OC)c(NC(=O)c2sc3nc(Cc4ccccc4)cc(C(F)(F)F)c3c2N)c1 | -1 | -59 | -3% | ? | -6
O=c1c2cc(NC(=S)N3CCCCCC3)ccc2nc2n1CCCCC2 | · | 2.2 | 3% | 2 | 5
Cc1ccc(C(=O)NC(=S)NCCCN2CCOCC2)cc1 | · | 0.2 | 3% | 4 | 4
Cc1cc(Cl)ccc1NC(=O)C1CCCN1C(=O)c1cccs1 (stereo unspecified) | 15 | -3.2 | 0% | 5 | -5
CCOC(=O)n1c(SCC(N)=O)nc2ccccc21 | -26 | -0.3 | -2% | -3 | 8
CC(C)c1ccc(/C=C2\SC(=S)N(CCC(=O)NCCCn3ccnc3)C2=O)cc1 | · | 6.1 | · | 13 | ·
O=c1c2ccc(Cl)cc2[nH]c(=S)n1CCC1=CCCCC1 | -14 | -1.1 | 3% | 0 | -5
Cc1cccc(-n2c(=S)[nH]c3ccccc3c2=O)n1 | · | -0.3 | 5% | -5 | 0
COc1cccc(CNC(=O)c2cc(C)nc3ccccc23)c1 | · | 0.2 | · | 5 | ·
Cc1c(C(=O)N2CC(C)OC(C)C2)[nH]c2ccc(Br)cc12 (stereo unspecified) | · | 0.2 | · | 3 | ·
CN=C(C)/C(C(=O)OC)=C(/O)c1ccccc1F | · | 0.4 | -1% | 5 | ·
CSc1ccc(/C=C(\C#N)C(=O)NC2CCCCC2)cc1 | -11 | 2.3 | 5% | 12 | -12
COc1ccccc1NC(=S)N1CCN(c2ccccn2)CC1 | -33 | 0.0 | 0% | 6 | 4
CCN1CCN(C(=O)c2nn(-c3ccc(C)cc3)c(=O)c3c2c2ccccc2n3C)CC1 | -32 | 2.9 | 1% | 3 | -13
CC(=O)NCCN1C(=O)S/C(=C\c2cccs2)C1=O | · | -1.1 | 5% | -7 | -7
N/C(=N\OC(=O)c1ccc(Cl)cc1Cl)c1ccccn1 | · | 2.2 | · | 42 | -7
CCN(CC)C(=O)CN(c1cc(Cl)ccc1OC)S(C)(=O)=O | -5 | -0.4 | 0% | 1 | 6
Cc1nn(Cc2ccccc2)c(C)c1C(=O)OCC(=O)NCc1ccco1 | -5 | 0.3 | -7% | -5 | -3
OCCC1CN(Cc2cc3ccccc3o2)CCN1Cc1ccc(F)cc1 (stereo unspecified) | · | 0.4 | · | 6 | ·
CN(C)c1ccc(C(=O)Nc2nnc(C3=COCCO3)o2)cc1 | · | 0.5 | 23µM* | 90 | -1
N#C/C(=C\c1ccc(-c2ccc(S(=O)(=O)N3CCOCC3)cc2)o1)C(=O)NC1CC1 | -20 | · | 4% | -4 | -1
C=CCn1c(O)c(C(C)=NC2CC2)c(=O)[nH]c1=O | -45 | 0.2 | 1% | -8 | 3
Cn1ccnc1SCC(=O)Nc1ccc(Br)cc1C(F)(F)F | · | -3.2 | · | -13 | ·
COc1ccc2nc(/N=C/c3cccc(OC)c3O)sc2c1 | · | 1.3 | · | 30 | ·
COC(=O)c1cc2ccsc2n1Cc1nc(-c2ccc(OC)cc2)oc1C | -16 | 7.8 | 5% | 14 | 2
C=CCn1c(=O)c2ccc(C(=O)NCc3ccccc3)cc2n(Cc2ccc(Cl)cc2)c1=O | -11 | 4.7 | -1% | 0 | 0
COc1ccccc1NC(=O)NCc1nc(-c2ccc(C(F)(F)F)cc2)no1 | · | 0.6 | 1% | -18 | ·
CSc1ncc(C(=O)Nc2cccc(Cl)c2)c(C)n1 | · | 3.8 | · | 99 | ·

3 entries from above, comma-delimited:
SMILES,YopH PTP inh,RecA intein inh,Mtb H37Rv,Mtb bLac sens,Arbovirus anti
N/C(=N\OC(=O)c1ccc(Cl)cc1Cl)c1ccccn1,·,2.2,·,42,-7
OCCC1CN(Cc2cc3ccccc3o2)CCN1Cc1ccc(F)cc1 (stereo unspecified),·,0.4,·,6,·
C=CCn1c(O)c(C(C)=NC2CC2)c(=O)[nH]c1=O,-45,0.2,1%,-8,3

Next part
SMILES | YopH PTP inh | RecA intein inh | Mtb H37Rv | Mtb bLac sens | Arbovirus anti
CNc1ccc(Br)cc(C(=O)/C=C/c2ccc(OC)cc2)c1=O | -12 | 0.0 | -1% | 4 | 8
Cc1cc([N+](=O)[O-])cc(C)c1OCC(=O)N/N=C/c1ccc(OC(=O)c2ccccc2)cc1 | -17 | 3.2 | 13% | -1 | 1
Cc1ncsc1C(=O)Nc1nc2c(s1)CCCC2 | -27 | -2.3 | 1% | -8 | -4
CCCN1CCN(C(=O)c2ccc(CS(=O)c3ccc(F)cc3)o2)CC1 (stereo unspecified) | · | 2.8 | · | -14 | ·
CCOc1ccc(CN2CCN(Cc3cc4ccccc4[nH]3)CC2CCO)cc1 (stereo unspecified) | · | 2.8 | -1% | · | 9
Cc1nc2ccccc2n1CC(=O)OCC(=O)NC1CC1 | · | 0.4 | 1% | 3 | 1
COc1ccc(C(=O)NC2CCCc3c2cnn3-c2cc(F)cc(F)c2)c(OC)c1OC (stereo unspecified) | · | 0.4 | · | 4 | ·
CC(=O)N1c2ccccc2N(Cc2ccc([N+](=O)[O-])cc2)C(=O)C1(C)C | -29 | 2.0 | -1% | 3 | 5
NC(=S)C(c1ccccc1)c1ncc(C(F)(F)F)cc1Cl (stereo unspecified) | · | -7.3 | · | -11 | ·
CCC(C)NC(=O)c1cn(CC)c2cc(N3CCN(C(=O)c4ccco4)CC3)c(F)cc2c1=O (stereo unspecified) | · | -2.7 | · | 96 | ·
Cn1cc(CN2CCCC(C(=O)Nc3cccc(-n4cccn4)c3)C2)cn1 (stereo unspecified) | · | 0.1 | · | 2 | ·
N#Cc1cc(C(=O)c2cc(Cl)ccc2O)cn(CC2CCCO2)c1=O (stereo unspecified) | -6 | 1.0 | -1% | -7 | 6
CN1CCC(=NNC(=O)c2cn(-c3ccccc3)nc2-c2ccccc2)CC1 | -19 | 0.6 | 9% | 3 | -14
Nc1nccnc1C(=O)OCC(=O)Nc1ccc2[nH]c(=O)[nH]c2c1 | · | -4.3 | · | 0 | ·
CC1C(=O)Nc2ccc(S(=O)(=O)NCCc3ccc(Cl)cc3)cc2NC1=O (stereo unspecified) | · | 2.8 | · | -4 | ·
COC(=O)c1ccc(C(=O)Nc2cc(Cl)ccc2Cl)cc1NC(=O)c1ccccc1C | -27 | 1.0 | -1% | · | -20
CC1(C)CC(=O)C(C2(O)C(=O)N(Cc3ccccc3)c3ccccc32)CO1 (stereo unspecified) | -6 | -1.0 | -5% | 0 | -7
CN1CC(C(=O)c2cccs2)C(c2ccc(Cl)cc2)C1 (stereo unspecified) | · | -0.9 | · | -8 | ·
Cc1cc(C)n(/N=C/c2ccccc2)c(=O)c1C#N | -32 | -0.8 | -10% | 10 | 14
Cc1ccc2nc(NC(=O)CCNS(=O)(=O)c3ccc(Br)s3)sc2c1 | -27 | -0.4 | 2% | 56 | -22
O=C(/C=C/c1cccc(F)c1)NCc1ccc2c(c1)OCO2 | · | 1.8 | · | -5 | ·
CCN(CC)C(=O)C(Oc1ccc(S(=O)(=O)N2CCCC2)cc1[N+](=O)[O-])c1ccccc1 (stereo unspecified) | · | 0.4 | · | 5 | ·
CCc1cc(CC)c(/C=N/NC(N)=O)c(CC)c1 | · | 1.6 | -5% | 8 | -9
COc1ccc(NC(=O)c2[nH]c(C)c(C(C)=O)c2C)cc1S(=O)(=O)Nc1ccc(Br)cc1 | · | 0.1 | -14% | 1 | ·
COc1ccc(-c2cn[nH]c2-c2ccc(OCc3ccccc3F)cc2O)cc1OC | · | 3.2 | 0% | -3 | ·
COC(=O)c1scc(S(=O)(=O)C(C)C)c1N/N=C(\C#N)C(=O)c1ccc(Cl)cc1 | · | 3.4 | -6% | -2 | ·
Nc1ncc(S(=O)(=O)c2ccc(Cl)cc2)c(N)n1 | · | 1.1 | · | 1 | ·
O=C(NCCS(=O)(=O)c1ccc(Br)cc1)c1ccccc1Cl | · | 0.3 | · | 1 | ·
CCOC(=O)C1CCCN(C(=O)C2CCC(CNS(=O)(=O)c3ccc(NC(C)=O)cc3)CC2)C1 (stereo unspecified) | -43 | 0.5 | -8% | -12 | 7
CN(C)S(=O)(=O)c1cccc(CSc2cccc[n+]2[O-])c1 | -21 | · | -6% | -5 | 0

Random excerpt: 3 records from the list
SMILES | YopH PTP inh | RecA intein inh | Mtb H37Rv | Mtb bLac sens | Arbovirus anti
COC(=O)c1scc(S(=O)(=O)C(C)C)c1N/N=C(\C#N)C(=O)c1ccc(Cl)cc1 | · | 3.4 | -6% | -2 | ·
CN(C)S(=O)(=O)c1cccc(CSc2cccc[n+]2[O-])c1 | -21 | · | -6% | -5 | 0
Nc1ncc(S(=O)(=O)c2ccc(Cl)cc2)c(N)n1 | · | 1.1 | · | 1 | ·

Additional structures
SMILES | YopH PTP inh | RecA intein inh | Mtb H37Rv | Mtb bLac sens | Arbovirus anti
CCOC(=O)CC1C(=O)NCCN1c1nc2c(C)cccn2c(=O)c1/C=C1\SC(=S)N(C(C)CC)C1=O (stereo unspecified) | · | -15 | 11% | -5 | ·
N#CC1C(C#N)N2CCCN2C1c1ccc(Br)cc1 (stereo unspecified) | · | 0.7 | 4% | 4 | ·
S=C(Nc1ccccc1Cl)N1CCC(c2ccccc2)C1 (stereo unspecified) | · | 0.4 | -3% | 5 | -2
CC1(C)Cc2ccccc2-c2n[nH]c(=S)n21 | -41 | -0.8 | -8% | 2 | -4
O=S(=O)(c1ccccc1)C1(S(=O)(=O)c2ccccc2)CCCC1 | -4 | 6.3 | -6% | -11 | -2
O=C(CCC(=O)Nc1ccc(F)cc1)N/N=C/c1ccc(O)cc1O | · | -2.5 | -17% | 1 | -7
CCCCn1c(SCC(=O)Nc2nnc(CC)s2)nc2ccccc2c1=O | -31 | -0.7 | 2% | 2 | -11
O=C(c1noc2c1CCCC2)N1CCC(CO)(Cc2ccccc2Cl)CC1 | · | 4.3 | -2% | -12 | -8
